NPYLR7 agonist: agonists of mosquito NPYLR7 receptor, primary screen, cell-based, Aedes aegypti, calcium fluorescence, mosquito biting behavior; HEK293T NPYLR7/Galpha15, GCaMP6s calcium fluorescence; activation, % at 10 µM; Aedes aegypti neuropeptide Y-like receptor 7 (NPYLR7); actives 0.15% (n = 270,000); in the data active means activation above about 40%;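 further: 0% = vehicle and 100% = reference agonist at the receptor; some compounds past the cut are filed as inactive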
NPYLR7 agonist max-min: also measured in NPYLR7 agonist; calls as there; activation, %; measured here: Max-Min RFU normalised activation; some inactives read as strong as hits;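 span of the calcium signal over five minutes; 0% = vehicle and 100% = native peptide agonist; compound fluorescence can raise it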
* marks the source's active call; other numbers are inactive results. Some of the compounds tested (hit frequency here may not be typical).

SMILES | NPYLR7 agonist | NPYLR7 agonist max-min
CC1CC1C(=O)Nc1ccc(-n2nccc2C(F)(F)F)cc1 (stereo unspecified) | 6 | 1
COc1ccccc1-c1cccc(C(=O)NCCc2cnc[nH]2)c1 | 3 | 0
CCNC(=O)OC1CN(C(=O)c2ccc(C)cc2)CCC(=O)N(C)c2ccccc21 (stereo unspecified) | 2 | 8
Fc1ccccc1CN1CCC(NCc2cccc3c2OCCCO3)CC1 | -1 | -2
COc1ccc(N2C(=O)CC(N(CCc3ccc(Cl)cc3)C(C)=O)C2=O)cc1 (stereo unspecified) | -14 | -19
Cc1nnc(Sc2nc3ccccc3nc2C)s1 | 3 | 4
CCCSc1nc2c(c(=O)n(C)c(=O)n2C)n1CCCc1ccccc1 | 1 | 6
Cc1ccccc1C(=O)n1sc(=O)c2ccccc21 | 2 | -2
O=C(C1CCCC1)N(Cc1c(-c2ccccc2)noc1N1CCc2ccccc2C1)CC1CCCO1 (stereo unspecified) | 5 | 16
COc1ccc(CNC(=O)c2sc(=O)n(Cc3ccc4c(c3)OCO4)c2C)cc1 | 13 | 9
O=C(O)C1CCN(c2ncnc3cc(-c4ccc(F)cc4)sc23)CC1 | 1 | 0
Cc1cc(F)ccc1S(=O)(=O)N(Cc1nnc(-c2ccccc2Cl)o1)C(C)C | 1 | 17
CN(C)CCCN(C)C1CCCN(C(=O)c2cc3sccc3[nH]2)C1 (stereo unspecified) | 20 | 11
CC1(C(=O)NS(=O)(=O)c2cccc(C#N)c2)CCN1C(=O)CC1CC1 (stereo unspecified) | -2 | -4
Nc1cc(-c2cccc(Cl)c2)nn1-c1ccc(C(=O)NCc2cccnc2)cc1 | -8 | -11
O=C(NC1CCN(C2CC(=O)N(c3ccc(Cl)cc3)C2=O)CC1)c1ccccc1 (stereo unspecified) | 0 | 6
COC(=O)C1=C(O)/C(=C\c2ccc(N(C)C)cc2)SC1=Nc1ccc(C(F)(F)F)cc1 | 18 | 28
COc1ccc(NC(=O)C2(C)CCN2Cc2ccc(NC(C)=O)cc2)cc1OC (stereo unspecified) | 8 | 3
CC(O)c1cccc(NC(=O)c2cnn3c2NC(c2cccs2)CC3C(F)(F)F)c1 (stereo unspecified) | -13 | -16
CCN(C(=O)c1ccc2c(c1)OCO2)c1ccc2ccccc2c1 | 0 | -4
CCC(CC)NC(=O)CSc1nnc(N2CCOCC2)n1C1CC1 | 6 | 1
c1ccc2n[nH]nc2c1 | 9 | 8
CCCCC(=O)OCC(=O)Nc1cc(OC)c([N+](=O)[O-])cc1C | -5 | -9
COCCN(CC(=O)N1CCc2sccc2C1c1ccc(Cl)cc1Cl)C(=O)c1ccc(OC)cc1 (stereo unspecified) | -8 | -6
CC(CN1CCCCCC1)NCC1CCN(C(=O)C(C)C)CC1 (stereo unspecified) | -4 | -5
Cc1ccc([N+](=O)[O-])cc1N1C(=O)C2C3C=CC(CC3)C2C1=O (stereo unspecified) | 4 | 4
c1ccc(Cc2nc(CCc3cccs3)n[nH]2)cc1 | 4 | 11
CCCS(=O)(=O)N1CCN(c2ccc(-n3ccc(C)n3)nn2)CC1 | -5 | -7
CCC(Sc1ncc(S(=O)(=O)c2ccccc2)c(=O)[nH]1)C(=O)Nc1cc(Cl)ccc1C (stereo unspecified) | -11 | -12
O=C(NCC1CCOC1)N1CCN(Cc2ccc(Cl)s2)CC1 (stereo unspecified) | -4 | -4
Brc1ccc(Oc2nnc(Oc3ccc(Br)cc3)c3ccccc23)cc1 | -6 | 2
C=CCNC(=O)Cn1c(CO)cnc1SCc1ccc(F)cc1 | 5 | 1
O=C(c1ccc[nH]1)N1CCCC(c2[nH]ncc2Cc2ccccc2)C1 (stereo unspecified) | -1 | 7
CC1(C(=O)O)NCCc2cc(O)c(O)cc21 (stereo unspecified) | -5 | -8
N#CC1COCCN1C(=O)Cc1c[nH]c2ccc(Cl)cc12 (stereo unspecified) | 7 | 3
Cc1noc(C(C)C)c1C(=O)N=c1sccn1C | -1 | -6
C=CCN=c1scc(-c2ccc(OC(F)F)cc2)n1N=Cc1c[nH]c2ccccc12 | -6 | -6
C=CCn1cc(CNC23CC4CC(C2)CC(n2nnc(C)n2)(C4)C3)c(C)n1 | 5 | 1
COc1cc(O)c2c(=O)cc(C)oc2c1CC=C(C)C | 6 | 6
O=C1NC(N2CCCC(CO)C2)=N/C1=C\c1ccc(Cl)cc1 (stereo unspecified) | -6 | -9
CCOC(=O)C1N=C2C(=[N+]([O-])C1N)COC(C)(C)/C2=N/O (stereo unspecified) | -1 | 3
CCS(=O)(=O)c1nc2ccc(NC(=O)C3CCCN3S(C)(=O)=O)cc2s1 (stereo unspecified) | 3 | 0
O=C(c1cn(CC2CCCO2)nn1)N1CCC(Oc2cccc(C(F)(F)F)c2)CC1 (stereo unspecified) | 4 | 1
Cc1nnnn1C(Cc1ccccc1)C(=O)n1ncc2cccc(N)c21 (stereo unspecified) | -5 | -5
COc1cccc(C(=O)Nc2cccc(C3SCC(=O)N3c3cccc(F)c3)c2)c1 (stereo unspecified) | -4 | -2
COC(=O)c1ccc(-c2c(NCc3ccccc3)oc3c2c(=O)n(C)c(=O)n3C)cc1 | -1 | -4
COC(=O)NC1(C(F)(F)F)NC(=O)N(C2CCCC2)C1=O (stereo unspecified) | 16 | 8
Cc1ccc2nc(N(CCCN(C)C)C(=O)c3ccccc3)sc2c1 | 14 | 14
CCC12CC3CC(Br)(C1)CC(C(=O)O)(C3)C2 (stereo unspecified) | 7 | 9
Cc1nc(C(C)C)cc(=O)[nH]1 | 1 | -3
COc1ccc(OC)c(NC(=O)c2cnn(-c3ccccn3)c2C)c1 | 4 | 3
OCCn1ccnc1-c1ccc2c(c1)Cc1ccccc1-2 | 1 | -5
CC(=O)N[C@H]1C[C@@H](c2cc(C)cc(F)c2)O[C@@H](C2CCCCC2)C1 | 3 | 2
COCCNc1cc(-c2ccsc2C(C)=O)c2cc[nH]c2n1 | 4 | 0
O=C(c1ccc(F)cc1)N(Cc1csc(COc2cc(Cl)ccc2Cl)n1)C1CC1 | -1 | 7
CC(C)CCN(CC(=O)NCc1ccco1)S(=O)(=O)c1ccc(F)cc1 | 1 | -1
Cc1cc(C(=O)N2CCN(C(=O)c3cccc(O)c3)CC2)c(C)s1 | 0 | 0
COc1ccc(-c2cc(CNC(=O)Cc3cccs3)no2)cc1OC | 2 | 1
CC(=O)N1N=C(c2ccco2)OC1C(=O)N[C@@H]1C[C@@H]2C[C@H]([C@H]1C)C2(C)C (stereo partly specified) | 9 | 3
CCOC(=O)CNC(=O)N1CCCC(Cc2ccc(F)cc2F)(C(=O)OCC)C1 (stereo unspecified) | 3 | 1

Of the compounds above, these contain a cyano group.
SMILES | NPYLR7 agonist | NPYLR7 agonist max-min
CC1(C(=O)NS(=O)(=O)c2cccc(C#N)c2)CCN1C(=O)CC1CC1 (stereo unspecified) | -2 | -4
N#CC1COCCN1C(=O)Cc1c[nH]c2ccc(Cl)cc12 (stereo unspecified) | 7 | 3

The results go on.
SMILES | NPYLR7 agonist | NPYLR7 agonist max-min
CC(OC(=O)C1CCC(C(C)(C)C)CC1)C(N)=O (stereo unspecified) | 0 | 0
COc1ccc(-n2c(CCC(=O)NCc3cccc(OC)c3)ccc2-c2ccc(Cl)cc2)cc1 | 2 | 1
C=C1c2ccccc2C(=O)N1C(C)C(=O)N(C)Cc1ccc(C(=O)NC)cc1 (stereo unspecified) | 11 | 5
OCc1cc(-c2ccc(F)cc2F)on1 | -3 | -4
CC(C)C1CN(C(=O)c2nn(C)c(=O)c3ccccc23)CCCN1CC1CC1 (stereo unspecified) | 23 | 15
COCCN1C[C@H]2COc3ccccc3[C@H]2N(C(=O)C2CCC2)CCC1=O | 24 | 29
COC(=O)c1sc(=S)n(-c2ccc(F)c(F)c2)c1N | 5 | 4
Cc1nn(CC(=O)NCc2ccccc2)c(C)c1[N+](=O)[O-] | -12 | -24
CCc1ccc(N2CC(C)Cn3c2nc2c3c(=O)n(CCC(C)C)c(=O)n2C)cc1 (stereo unspecified) | 1 | -2
CC(C)c1nn(CC(=O)NCCc2ccccc2)c(=O)c2c1cnn2-c1ccccc1 | 9 | 5
COCCNc1c(-c2ccc(OC)c(OC)c2)cnc2ncnn12 | 1 | -2
CC(=O)Nc1ccc(NC(=O)CSc2nnc(C)c3cnn(-c4ccc(F)cc4)c23)cc1 | -9 | -14
CCOc1ccc(NC(=O)NCCS(=O)(=O)c2c(C)n(C)c3ccccc23)cc1 | -4 | 9
COc1ccc(S(=O)(=O)NCCc2csc3nc(-c4cccs4)nn23)cc1C | 19 | 8
Cc1sc2nc(CN3CCCC3)nc(Sc3nnnn3C3CC3)c2c1C | 7 | 14
C=CCn1c(SC(C)C(=O)Nc2ccccc2F)nc2sccc2c1=O (stereo unspecified) | 2 | 1
COCc1ccc(CN2CCC(C(=O)Nc3ccc(Oc4ccccc4F)cc3)CC2)o1 | 14 | 5
O=S(=O)(N1CCC2(CCCO2)CC1)N1CCc2ccccc2C1 | 21 | 14
CCCN(CCC)Cn1c(O)c(N=NC(=O)CSc2nc3ccccc3o2)c2ccccc21 | -2 | -8
O=C(NC(c1ccc(-c2ccccc2)cc1)c1cnccn1)C1CCN(CCCc2ccccc2)CC1 (stereo unspecified) | 2 | 1
COc1cccc(C(=O)N(Cc2nccn2Cc2ccccc2Cl)C2CCCCC2)c1 | 2 | 10
CC(C)c1cc(C(C)C)n(C2CCN(C(=O)C3CCCO3)CC2)n1 (stereo unspecified) | 3 | 9
CN1CCN(c2cc(-c3ccc(C(C)(C)C)cc3)nc3ccnn23)CC1 | 0 | -1
CN1C[C@H](NC(=O)c2cc(-c3ccccc3)on2)C[C@H]1CO | 12 | 9
Cc1cc(C)cc(-n2ccnc2-c2cnc(N(C)C)nc2)c1 | 16 | 6
Cc1ccccc1CN1CCC(CN(Cc2cccnc2)C(=O)[C@H]2C[C@@H]3C=C[C@H]2C3)CC1 | 1 | -2
CCC(=O)N1CCCC(OCc2cccc(C)c2)C1 (stereo unspecified) | -3 | 7
COc1cc(C(=O)N(CC(=O)N2CC(=O)N(c3cccc(Cl)c3C)C2)CC(C)C)cc(OC)c1OC | 19 | 15
O=C(O)CCC(=O)N1N=C(c2c(-c3ccccc3)c3cc(Cl)ccc3[nH]c2=O)CC1c1ccccc1 (stereo unspecified) | -7 | -11
O=S(=O)(NCC1CCN(Cc2ccccc2)CC1)C1CC1 | -1 | -3
Cc1nc(C)c(CCNC(=O)N2CCC(NC(=O)c3cnn(C)c3)CC2)s1 | -3 | -5
CNc1ncc(CN(C)C(=O)c2ccc3cccc(F)c3n2)cn1 | -1 | 44
CC1CCCN(C(C)C(=O)Nc2cc(Cl)cc(Cl)c2)C1 (stereo unspecified) | 11 | 5
Cc1sc2ncnc(SCC(=O)NCCc3ccccc3)c2c1C | -6 | -11
COc1ccc(C(=O)CSc2nc3ccccc3c(=O)[nH]2)cc1 | -8 | -14
C=CCOc1ccc(Oc2nc(N(C)C)nc(N(C)C)n2)nn1 | 8 | 1
CCOC(=O)C1CCN(C(c2ccc(OCC)cc2)C2Sc3nc(CC)nn3C2=O)CC1 (stereo unspecified) | -3 | 3
COCc1ccccc1C(=O)N1CCN(CC(F)(F)F)C(C)(C)C1 | 0 | 40
CCN1CC2([N+](=O)[O-])C=CC(=O)C([N+](=O)[O-])(C1)C2CC(=O)c1ccccc1 (stereo unspecified) | 10 | 13
O=C(NCc1noc(C2CCCC2)n1)C(=O)c1ccco1 | 6 | 4
Cn1cc(CCC(=O)NCc2cccc(CO)c2)c2ccccc21 | 5 | -6

Among those listed so far, 15 contain a Cl atom.
SMILES | NPYLR7 agonist | NPYLR7 agonist max-min
COc1ccc(N2C(=O)CC(N(CCc3ccc(Cl)cc3)C(C)=O)C2=O)cc1 (stereo unspecified) | -14 | -19
Cc1cc(F)ccc1S(=O)(=O)N(Cc1nnc(-c2ccccc2Cl)o1)C(C)C | 1 | 17
Nc1cc(-c2cccc(Cl)c2)nn1-c1ccc(C(=O)NCc2cccnc2)cc1 | -8 | -11
O=C(NC1CCN(C2CC(=O)N(c3ccc(Cl)cc3)C2=O)CC1)c1ccccc1 (stereo unspecified) | 0 | 6
COCCN(CC(=O)N1CCc2sccc2C1c1ccc(Cl)cc1Cl)C(=O)c1ccc(OC)cc1 (stereo unspecified) | -8 | -6
CCC(Sc1ncc(S(=O)(=O)c2ccccc2)c(=O)[nH]1)C(=O)Nc1cc(Cl)ccc1C (stereo unspecified) | -11 | -12
O=C(NCC1CCOC1)N1CCN(Cc2ccc(Cl)s2)CC1 (stereo unspecified) | -4 | -4
N#CC1COCCN1C(=O)Cc1c[nH]c2ccc(Cl)cc12 (stereo unspecified) | 7 | 3
O=C1NC(N2CCCC(CO)C2)=N/C1=C\c1ccc(Cl)cc1 (stereo unspecified) | -6 | -9
O=C(c1ccc(F)cc1)N(Cc1csc(COc2cc(Cl)ccc2Cl)n1)C1CC1 | -1 | 7
COc1ccc(-n2c(CCC(=O)NCc3cccc(OC)c3)ccc2-c2ccc(Cl)cc2)cc1 | 2 | 1
COc1cccc(C(=O)N(Cc2nccn2Cc2ccccc2Cl)C2CCCCC2)c1 | 2 | 10
COc1cc(C(=O)N(CC(=O)N2CC(=O)N(c3cccc(Cl)c3C)C2)CC(C)C)cc(OC)c1OC | 19 | 15
O=C(O)CCC(=O)N1N=C(c2c(-c3ccccc3)c3cc(Cl)ccc3[nH]c2=O)CC1c1ccccc1 (stereo unspecified) | -7 | -11
CC1CCCN(C(C)C(=O)Nc2cc(Cl)cc(Cl)c2)C1 (stereo unspecified) | 11 | 5
